Screening results from PubChem.
Env fusion inh: inhibitors of HIV Env-mediated cell fusion; inhibition, % at 12.3 µM; AID 651610; HeLa-JRFL Env/CEM21 cell fusion, luciferase; 360,000 compounds, 1.1% hits;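 active = mean replicate inhibition score of at least 50 and every replicate individually at or above 50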;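 also: 0% = plate neutral controls and 100% = maraviroc near 300 nM; one replicate is shown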
Yeast UUG start: modulators of start codon recognition fidelity in yeast; S. cerevisiae UUG-firefly luciferase reporter, luminescence/redox ratio; activity score, % at 18.7 µM; 350,000 compounds, 0.13% hits;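 active = replicate mean at a twofold rise or more, about +100% in these data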;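 also: firefly luciferase made from a UUG start codon reports start codon fidelity; reporter light over untreated wells divided by growth signal over untreated wells; some hits fall short of that in this replicate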
* hit, by the source's call; [ ] = remark or other dose. A portion of the library, so the mix of outcomes need not match the whole.

Env fusion inh | Yeast UUG start | structure
11[16.7 µM] | -7 | C[C@@H]1CN([C@@H](C)CO)C(=O)Cc2cc(NC(=O)NC3CCCCC3)ccc2O[C@H]1CN(C)C(=O)Nc1cccc2ccccc12
-22[16.7 µM] | 9 | O=C(O)C[C@@H]1C[C@H]2c3cc(NC(=O)NC4CCCCC4)ccc3O[C@H]2[C@@H](CO)O1
-23[16.7 µM] | 1 | Cc1noc(C)c1S(=O)(=O)Nc1cccc2c1O[C@H](CN(C)C(=O)Nc1ccccc1)[C@H](C)CN([C@@H](C)CO)C2=O
17[16.7 µM] | 2 | Cc1cccc(NC(=O)Nc2ccc3c(c2)C(=O)N(C)[C@@H]2CC[C@@H](CC(=O)O)O[C@@H]2CO3)c1
5[16.7 µM] | -2 | C[C@@H]1CN([C@@H](C)CO)C(=O)c2cc(NC(=O)Nc3ccccc3)ccc2O[C@@H]1CN(C)C(=O)Nc1ccccc1
3[16.7 µM] | -5 | C[C@@H]1CN([C@@H](C)CO)C(=O)Cc2cc(NS(=O)(=O)c3cn(C)cn3)ccc2O[C@H]1CN(C)S(=O)(=O)c1cccs1
-7[16.7 µM] | 10 | C[C@@H]1CN([C@H](C)CO)C(=O)c2cc(/C=C/c3ccccc3)cnc2O[C@@H]1CN(C)S(C)(=O)=O
12[16.7 µM] | 6 | Cc1noc(C)c1NC(=O)Nc1ccc2c(c1)C(=O)N([C@@H](C)CO)C[C@@H](C)[C@@H](CN(C)C)OCCCC[C@H](C)O2
8[16.7 µM] | 9 | C[C@@H]1CN([C@H](C)CO)C(=O)c2cc(NC(=O)Nc3ccccc3)ccc2O[C@H]1CN(C)C(=O)Nc1ccc(C(F)(F)F)cc1
-2[16.7 µM] | 27 | COc1ccccc1CNC(=O)C[C@@H]1C[C@H]2c3cc(NC(=O)NC4CCCC4)ccc3O[C@H]2[C@H](CO)O1

Other records
Env fusion inh | Yeast UUG start | structure
15[16.7 µM] | 6 | C/C=C/c1cnc2c(c1)C(=O)N([C@H](C)CO)C[C@H](C)[C@@H](CN(C)Cc1ccccc1)O2
-15[16.7 µM] | -17 | C[C@@H]1CN([C@H](C)CO)C(=O)c2cc(NS(=O)(=O)c3ccc(Cl)cc3)ccc2O[C@@H](C)CCCCO[C@@H]1CN(C)S(=O)(=O)c1ccc(Cl)cc1
12[16.7 µM] | -30 | C[C@H](CO)N1C[C@H](C)[C@H](CN(C)C(=O)Nc2ccc(F)cc2)Oc2cc(/C=C/c3ccccc3)ccc2S1(=O)=O
-28[16.7 µM] | 6 | CCCNC(=O)N(C)C[C@H]1Oc2ncc(/C=C/c3ccccc3)cc2C(=O)N([C@@H](C)CO)C[C@@H]1C
23[16.7 µM] | 8 | C[C@@H]1CCCCO[C@H](CN(C)S(=O)(=O)c2cn(C)cn2)[C@@H](C)CN([C@H](C)CO)C(=O)c2cc(NC(=O)Nc3ccc4c(c3)OCO4)ccc2O1
-44[16.7 µM] | -4 | C[C@@H]1CN([C@@H](C)CO)C(=O)c2cccc(NC(=O)Nc3ccccc3)c2O[C@H]1CN(C)Cc1ccc(C(=O)Nc2ccccc2N)cc1
-2[16.7 µM] | 5 | O=C(O)C[C@H]1C[C@@H]2c3cc(NC(=O)NC4CCCC4)ccc3O[C@@H]2[C@@H](CO)O1
11[16.7 µM] | 8 | C[C@@H]1CN([C@H](C)CO)C(=O)Cc2cc(NC(=O)Cc3ccccc3)ccc2O[C@H]1CN(C)S(C)(=O)=O
-1[16.7 µM] | 11 | C[C@H]1CN([C@@H](C)CO)C(=O)c2cc(C#CC3(O)CCCC3)cnc2O[C@H]1CN(C)S(=O)(=O)c1ccc(F)cc1
-12[16.7 µM] | -9 | Cc1noc(C)c1S(=O)(=O)Nc1ccc2c(c1)C(=O)N([C@@H](C)CO)C[C@@H](C)[C@H](CN(C)CC1CCCCC1)O2

Next structures
Env fusion inh | Yeast UUG start | structure
-20[16.7 µM] | 15 | COCC#Cc1ccc2c(c1)O[C@H](CN(C)Cc1ccc(F)cc1)[C@@H](C)CN([C@H](C)CO)S2(=O)=O
9[16.7 µM] | 9 | Cc1ccc(S(=O)(=O)N[C@@H]2CC[C@@H](CCNC(=O)c3ccc4c(c3)OCO4)O[C@H]2CO)cc1
5[16.7 µM] | -12 | CO[C@H]1CN(C)C(=O)c2ccc(NS(C)(=O)=O)cc2OC[C@@H](C)N(C(=O)CN(C)C)C[C@@H]1C
18[16.7 µM] | -13 | Cc1noc(C)c1NC(=O)N(C)C[C@@H]1Oc2ncc(C#CC3CCCCC3)cc2C(=O)N([C@H](C)CO)C[C@H]1C
-31[16.7 µM] | -2 | Cc1noc(C)c1NC(=O)Nc1ccc2c(c1)C(=O)N([C@H](C)CO)C[C@@H](C)[C@H](CN(C)C(=O)Nc1c(C)noc1C)OCCCC[C@@H](C)O2
0[16.7 µM] | -5 | CC(C)CC#Cc1cnc2c(c1)C(=O)N([C@@H](C)CO)C[C@H](C)[C@@H](CN(C)C(=O)C1CCOCC1)O2
-8[16.7 µM] | -4 | COCC#Cc1ccc2c(c1)O[C@H](CN(C)S(=O)(=O)c1ccc(F)cc1)[C@@H](C)CN([C@H](C)CO)S2(=O)=O
8[16.7 µM] | -7 | C[C@H](NC(=O)C[C@H]1C[C@H]2c3cc(NC(=O)NC4CCCC4)ccc3O[C@H]2[C@H](CO)O1)c1ccccc1
-8[16.7 µM] | 0 | CN(C)CC(=O)Nc1ccc2c(c1)[C@@H]1C[C@@H](CC(=O)NCc3ccccc3F)O[C@@H](CO)[C@@H]1O2
-6[16.7 µM] | 2 | C[C@@H]1CCCCO[C@@H](CN(C)Cc2ccc(C(=O)O)cc2)[C@H](C)CN([C@H](C)CO)C(=O)c2cc(NS(=O)(=O)c3ccccc3)ccc2O1

Later entries:
Env fusion inh | Yeast UUG start | structure
-11[16.7 µM] | 7 | C[C@H](O)C#Cc1cnc2c(c1)C(=O)N([C@H](C)CO)C[C@H](C)[C@@H](CN(C)C(=O)c1ccncc1)O2
2[16.7 µM] | -6 | CC(=O)N(C)C[C@H]1Oc2ncc(-c3cccc(F)c3)cc2C(=O)N([C@H](C)CO)C[C@H]1C
10[16.7 µM] | 1 | COc1ccc(NC(=O)N(C)C[C@H]2Oc3c(NS(=O)(=O)c4cn(C)cn4)cccc3C(=O)N([C@@H](C)CO)C[C@@H]2C)cc1
-3[16.7 µM] | 7 | C[C@@H]1CN([C@H](C)CO)C(=O)c2cc(C3=CCCC3)cnc2O[C@H]1CN(C)C(=O)C1CCCCC1
3[16.7 µM] | -14 | CN(C)CC(=O)Nc1ccc2c(c1)[C@@H]1C[C@H](CC(=O)NCc3ccncc3)O[C@H](CO)[C@@H]1O2
3[16.7 µM] | 3 | COc1ccc(C#Cc2ccc3c(c2)[C@]2(C(=O)N3)[C@H](c3ccc(O)cc3)N3[C@H](c4ccccc4)[C@H](c4ccccc4)OC(=O)[C@H]3[C@@H]2C(=O)N2CCc3cc(OC)c(OC)cc3C2)cc1
0[16.7 µM] | -4 | COCC(=O)N(C)C[C@@H]1Oc2cc(-c3ccc(F)cc3)ccc2S(=O)(=O)N([C@@H](C)CO)C[C@@H]1C
-30[16.7 µM] | 7 | CC(C)NC(=O)N(C)C[C@H]1Oc2ccc(NC(=O)Nc3ccc(C(F)(F)F)cc3)cc2CC(=O)N([C@@H](C)CO)C[C@H]1C
60*[16.7 µM] | -7 | Cc1noc(C)c1NC(=O)N(C)C[C@H]1OCCCC[C@@H](C)Oc2ccc(NS(=O)(=O)c3ccc(F)cc3)cc2C(=O)N([C@H](C)CO)C[C@@H]1C
29[16.7 µM] | 26 | C[C@@H]1CCCCO[C@@H](CN(C)Cc2ccc3c(c2)OCO3)[C@H](C)CN([C@@H](C)CO)C(=O)c2cc(NC(=O)Nc3ccc(F)cc3)ccc2O1

(list continues)
Env fusion inh | Yeast UUG start | structure
4[16.7 µM] | 11 | C[C@@H]1CN([C@H](C)CO)C(=O)c2cc(NC(=O)C3CC3)ccc2O[C@H]1CN(C)Cc1ccc(C(F)(F)F)cc1
-22[16.7 µM] | 3 | COc1ccc(S(=O)(=O)N(C)C[C@@H]2Oc3c(NS(=O)(=O)c4cn(C)cn4)cccc3C(=O)N([C@@H](C)CO)C[C@H]2C)cc1
0[16.7 µM] | -8 | C[C@@H]1CN([C@@H](C)CO)S(=O)(=O)c2ccc(C#Cc3ccc(F)cc3)cc2O[C@@H]1CN(C)S(=O)(=O)c1cn(C)cn1
1[16.7 µM] | 1 | COc1cccc(S(=O)(=O)N[C@H]2CC[C@H](CCn3cc(-c4ccccc4)nn3)O[C@H]2CO)c1
-5[16.7 µM] | -1 | CNC[C@H]1Oc2ccc(NC(=O)Nc3c(C)noc3C)cc2CC(=O)N([C@@H](C)CO)C[C@H]1C
-9[16.7 µM] | 1 | C[C@@H]1CCCCO[C@H](CN(C)C(=O)c2ccncc2)[C@@H](C)CN([C@H](C)CO)C(=O)c2cc(NS(=O)(=O)c3cccs3)ccc2O1
23[16.7 µM] | 55 | CCC(=O)N1C[C@H](C)[C@@H](OC)CN(C)C(=O)c2cc(NC(=O)Nc3cccc(F)c3)ccc2OC[C@@H]1C
20[16.7 µM] | 3 | CCC(=O)N(C)C[C@@H]1Oc2cc(-c3cccnc3)ccc2S(=O)(=O)N([C@@H](C)CO)C[C@@H]1C
1[16.7 µM] | 1 | Cc1ccc(S(=O)(=O)Nc2cccc3c2O[C@H](CN(C)C(=O)Nc2ccc(C(F)(F)F)cc2)[C@@H](C)CN([C@@H](C)CO)C3=O)cc1
4[16.7 µM] | -20 | O=C(C[C@@H]1CC[C@@H](NC(=O)c2ccncc2)[C@H](CO)O1)NCC1CCCCC1

2 successive compounds out of the list so far, quoted:
Env fusion inh | Yeast UUG start | structure
4[16.7 µM] | 11 | C[C@@H]1CN([C@H](C)CO)C(=O)c2cc(NC(=O)C3CC3)ccc2O[C@H]1CN(C)Cc1ccc(C(F)(F)F)cc1
-22[16.7 µM] | 3 | COc1ccc(S(=O)(=O)N(C)C[C@@H]2Oc3c(NS(=O)(=O)c4cn(C)cn4)cccc3C(=O)N([C@@H](C)CO)C[C@H]2C)cc1

Six of these compounds in a different format:
molecule | Env fusion inh | Yeast UUG start
CCC(=O)N(C)C[C@@H]1Oc2cc(-c3cccnc3)ccc2S(=O)(=O)N([C@@H](C)CO)C[C@@H]1C | 20[16.7 µM] | 3
C[C@@H]1CN([C@H](C)CO)C(=O)c2cc(NC(=O)C3CC3)ccc2O[C@H]1CN(C)Cc1ccc(C(F)(F)F)cc1 | 4[16.7 µM] | 11
COc1cccc(S(=O)(=O)N[C@H]2CC[C@H](CCn3cc(-c4ccccc4)nn3)O[C@H]2CO)c1 | 1[16.7 µM] | 1
COc1ccc(S(=O)(=O)N(C)C[C@@H]2Oc3c(NS(=O)(=O)c4cn(C)cn4)cccc3C(=O)N([C@@H](C)CO)C[C@H]2C)cc1 | -22[16.7 µM] | 3
Cc1ccc(S(=O)(=O)Nc2cccc3c2O[C@H](CN(C)C(=O)Nc2ccc(C(F)(F)F)cc2)[C@@H](C)CN([C@@H](C)CO)C3=O)cc1 | 1[16.7 µM] | 1
CNC[C@H]1Oc2ccc(NC(=O)Nc3c(C)noc3C)cc2CC(=O)N([C@@H](C)CO)C[C@H]1C | -5[16.7 µM] | -1

Next section:
Env fusion inh | Yeast UUG start | structure
1[16.7 µM] | -2 | Cc1noc(C)c1S(=O)(=O)Nc1ccc2c(c1)CC(=O)N([C@@H](C)CO)C[C@H](C)[C@@H](CN(C)C(=O)Nc1ccc(C(F)(F)F)cc1)O2
6[16.7 µM] | 8 | Cc1cc(C(=O)Nc2cccc3c2O[C@@H](CN(C)C(=O)Nc2cccc4ccccc24)[C@H](C)CN([C@H](C)CO)C3=O)n(C)n1
2[16.7 µM] | 11 | C/C=C/c1cnc2c(c1)C(=O)N([C@H](C)CO)C[C@H](C)[C@@H](CN(C)C(=O)Nc1ccccc1F)O2
-24[16.7 µM] | 2 | C[C@H]1CN([C@@H](C)CO)C(=O)c2cccc(NC(=O)Nc3ccc(C(F)(F)F)cc3)c2O[C@H]1CN(C)S(=O)(=O)c1ccc(F)cc1
1[16.7 µM] | -4 | C[C@H]1CN([C@@H](C)CO)C(=O)c2cc(-c3ccccc3)cnc2O[C@@H]1CN(C)Cc1cccnc1
-1[16.7 µM] | -3 | COc1cccc(CNC(=O)C[C@@H]2C=C[C@H](NC(=O)C3CCOCC3)[C@H](CO)O2)c1
2[16.7 µM] | -13 | COCC#Cc1cnc2c(c1)C(=O)N([C@@H](C)CO)C[C@@H](C)[C@@H](CN(C)C(=O)Nc1ccccc1OC)O2
-4[16.7 µM] | -10 | CCCC(=O)Nc1ccc2c(c1)C(=O)N(C)[C@@H]1CC[C@@H](CC(=O)OC)O[C@@H]1CO2
9[16.7 µM] | 33 | CCCN(C)C[C@@H]1OCCCC[C@@H](C)Oc2ccc(NC(=O)C3CCCCC3)cc2C(=O)N([C@@H](C)CO)C[C@@H]1C
-132[16.7 µM] | -6 | COc1ccc(NC(=O)N(C)C[C@@H]2OCCCC[C@@H](C)Oc3ccc(NS(=O)(=O)c4cccs4)cc3C(=O)N([C@H](C)CO)C[C@H]2C)cc1

The listing continues:
Env fusion inh | Yeast UUG start | structure
-16[16.7 µM] | 10 | CN1C(=O)c2cc(NC(=O)c3ccno3)ccc2OC[C@H]2O[C@@H](CC(=O)Nc3ccccc3)CC[C@@H]21
2[16.7 µM] | -12 | O=C(C[C@H]1C[C@H]2c3cc(NC(=O)CC4CC4)ccc3O[C@H]2[C@@H](CO)O1)NCCN1CCCCC1
-12[16.7 µM] | -8 | COc1ccc(NC(=O)O[C@H]2[C@H](OC(=O)Nc3ccc4c(c3)OCO4)[C@@H](OC(=O)Nc3ccc4c(c3)OCO4)[C@@H](OC)O[C@@H]2CO)cc1
-1[16.7 µM] | 30 | COc1ccccc1-c1cnc2c(c1)C(=O)N([C@@H](C)CO)C[C@H](C)[C@@H](CN(C)Cc1ccccc1)O2
-11[16.7 µM] | -3 | O=C(N[C@H]1CC[C@H](CCn2cc(C3CC3)nn2)O[C@@H]1CO)c1cccnc1
14[16.7 µM] | 0 | C[C@H](CO)N1C[C@H](C)[C@@H](CN(C)Cc2ccc(C(=O)O)cc2)Oc2ccc(NC(=O)CCN3CCOCC3)cc2CC1=O
